Bioassay records deposited in PubChem by National Center for Advancing Translational Sciences (NCATS).
miR-21 reporter – raises the signal of a miR-21 reporter | HeLa miR-21 FLuc reporter, luciferase, 48 h | Potency, µM (series often up to 38.3 µM), for inactives: at the highest dose reporter change, positive = more light | AID 2288 | 340,000 tested, under 10 active; active = well fitted rising curve with a large enough effect; inconclusive = small, poorly fitted or top-dose-only effect; inactive = no such curve, though single readings can be large or run the other way;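 further: % of control where 0% means no effect; miR-21 action dims this reporter so a rising signal means less miR-21 action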
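Luminescence from a firefly luciferase reporter carrying a miR-21 binding site downstream, stably expressed under a CMV promoter in HeLa cells that make miR-21 endogenously, reports miRNA modulation after 48 h compound exposure up to approximately 40uM final.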
* = called active by the depositor; ? = inconclusive; [ ] = remark or other dose. An excerpt; count on the stated rates, not on these rows.

SMILES	miR-21 reporter
COc1ccc(Cn2c(=O)c3oc4ccccc4c3n(Cc3cccc(C)c3)c2=O)cc1	1.5%
O=C(c1cc(-c2ccc(Cl)cc2)on1)N(Cc1cccc(F)c1)Cc1ccco1	0.1%
CCOc1ccccc1NC(=O)C1CCN(S(=O)(=O)c2ccc(Br)cc2)CC1	-2.1%
COc1ccccc1C(=O)Nc1c(C(=O)Nc2ccccc2F)oc2ccccc12	11.0%
Cc1cccc(NC(=O)c2c(NC(=O)c3ccco3)sc3c2CCC(C)C3)c1 (stereo unspecified)	1.8%
O=C(CC1NCCNC1=O)Nc1cccc(F)c1 (stereo unspecified)	-0.4%
COc1ccccc1Nc1c2c(nc3ccc(NC(=O)c4cccc(F)c4)cc13)CCCC2	-1.0%
CCOC(=O)C1CCCN(C(=O)c2ccc(C)c(NC(=O)c3nsc4ccccc34)c2)C1 (stereo unspecified)	-5.1%
Cc1ccccc1NC(=O)CSc1nc(-c2ccco2)nc2cc(=O)[nH]n12	-3.6%
Fc1ccc(-c2noc3ncnc(NCc4ccc(Cl)cc4)c23)cc1	-0.9%
Cc1cc(NC(=O)c2ccc(-c3ccc(Cl)cc3)o2)cc(-c2nc3ncccc3o2)c1O	2.1%
COc1cccc(-n2c(=O)c3c4c(sc3n(Cc3ccccc3C#N)c2=O)CCCC4)c1	-0.1%
COc1ccccc1CN1CCC(CNC(=O)c2cnn(-c3ccccc3Cl)c2C2CCN(C(=O)OC(C)(C)C)CC2)CC1	21.0%
O=C(CSc1nc(=O)[nH]c2c1CCCC2)NCc1ccccc1	-1.1%
CCCn1cc(S(=O)(=O)c2cc(C)ccc2C)c(=O)c2cc(F)c(N3CCCCCC3)cc21	23.0%
COc1ccc(NC(=O)Cn2c(=O)n(Cc3ccco3)c(=O)c3cc(OC)c(OC)cc32)cc1	-53.5%
O=C(CSc1nc(-c2ccccc2)[nH]c1-c1ccc(F)cc1)NC1CCCC1	21.2%
COC(=O)c1ccccc1NC(=O)c1cnc(Nc2ccc(OC)cc2)c2ccccc12	7.0%
Cc1ccc(NC(=O)c2ccc(NC(=O)N3CCSc4ncccc43)cc2)c(C)c1	-31.9%
O=C(CSc1ncc(CO)n1Cc1ccccc1)Nc1ccc(C(F)(F)F)cc1	15.6%

Sorted by count of non-hydrogen atoms (ascending): part of the list above
SMILES	miR-21 reporter
O=C(CSc1nc(-c2ccccc2)[nH]c1-c1ccc(F)cc1)NC1CCCC1	21.2%
COc1cccc(-n2c(=O)c3c4c(sc3n(Cc3ccccc3C#N)c2=O)CCCC4)c1	-0.1%
COc1ccc(NC(=O)Cn2c(=O)n(Cc3ccco3)c(=O)c3cc(OC)c(OC)cc32)cc1	-53.5%

Continued:
SMILES	miR-21 reporter
CSc1ccc(CCNC(=O)c2ccc3c(c2)nc2n3CCC(C)C2)cc1 (stereo unspecified)	-6.1%
Cc1ccc(S(=O)(=O)NCCc2csc3nc(-c4ccccc4F)nn23)cc1C	7.3%
CCC(CC)C(=O)OCc1cc(=O)n2nc(C3CC3)sc2n1	-33.0%
Cc1cc(C)c2oc(C(=O)Nc3nc4ccc(Cl)cc4s3)cc(=O)c2c1	3.4%
Cc1ccc(OCC(=O)Nc2cccc(C(=O)OCc3cc(=O)n4c(C)csc4n3)c2)cc1	8.3%
CC(=O)N1c2ccc(S(=O)(=O)NCC3CCC(C(=O)Nc4cccc(C)c4C)CC3)cc2CC1C (stereo unspecified)	1.0%
CC(C)CCNC(=O)c1ccc(Cn2c(=O)c3cccn3c3cccnc32)cc1	1.8%
CCOc1ccccc1C(=O)NCc1ccc2c(c1)CCN2C(C)=O	-3.9%
O=C(NCc1ccccc1Cl)c1ccc2c(c1)N(Cc1ccccc1)C(=O)c1ccccc1S2	-16.6%
Cc1ccc(/C=C/C(=O)N2CCC(c3nc4ccccc4o3)CC2)cc1	-19.7%
O=C(Nc1sc2c(c1C(=O)NCc1ccco1)CCCC2)c1cc(=O)c2cc(Cl)ccc2o1	0.6%
CCCS(=O)(=O)c1nc(S(=O)(=O)c2ccc(C)cc2)c(N(C)Cc2ccccc2)s1	6.8%
Cc1ccc(S(=O)(=O)N(CCc2ccccc2)CC(=O)Nc2ccccc2C)cc1	7.0%
Cc1ccc(-n2nc(C)c3c(C(=O)Nc4ccc(Br)c(C)c4)cc(C)nc32)cc1	0.5%
Cc1ccc(NC(=O)CC2Nc3ccccc3NC2=O)cc1C (stereo unspecified)	-31.2%
Cc1ccc(S(=O)(=O)N(CC(=O)Nc2c(C)cccc2C)c2cccc(Cl)c2)cc1	10.9%
O=C(NCc1ccc(F)cc1)c1cc(-c2ccc(Cl)cc2)n[nH]1	-1.6%
Cc1ccc(C(=O)Nc2cccc(-c3nc4cccnc4s3)c2C)cc1	18.2%
COc1ccc(Cl)cc1C(=O)NCc1nc(-c2cccc(C)c2)no1	-2.5%
Cc1oc2ncn(CC(C)C)c(=O)c2c1C(=O)Nc1cc(F)ccc1F	3.0%

Reformatted: 3 of the compounds above
SMILES | miR-21 reporter
O=C(NCc1ccc(F)cc1)c1cc(-c2ccc(Cl)cc2)n[nH]1 | -1.6%
Cc1ccc(C(=O)Nc2cccc(-c3nc4cccnc4s3)c2C)cc1 | 18.2%
COc1ccc(Cl)cc1C(=O)NCc1nc(-c2cccc(C)c2)no1 | -2.5%

(next part)
SMILES	miR-21 reporter
CCCNC(=O)c1cnc2c(-c3ccc(OCC)c(OCC)c3)c(C)nn2c1-c1ccccc1	0.8%
O=C(Nc1c(C(=O)N2CCN(c3ccc(F)cc3)CC2)oc2ccccc12)c1c(F)cccc1F	12.2%
COC(=O)c1cc(NC(=O)c2ccc3c(c2)NC(=O)c2ccccc2S3)cc(C(=O)OC)c1	0.1%
O=C(CCOc1ccccc1)N(Cc1cccnc1)c1nc2ccc(Cl)cc2s1	-2.0%
COC(=O)c1ccccc1NC(=O)Cn1c(CCC(=O)O)ccc1-c1ccc(C)cc1	2.2%
Cc1ccccc1OCC(=O)Nc1ccccc1C(=O)OCc1cc(=O)n2c(C)csc2n1	-6.9%
CCc1ccccc1N(C)S(=O)(=O)c1ccc2c(c1)C(C)(C)C(=O)N2C	8.1%
CC(C)c1ccc(NC(=O)CC2NCCNC2=O)cc1 (stereo unspecified)	-19.4%
CC1CCN(c2csc3ccc(F)cc3c2=O)CC1	-34.3%
Cc1nn(CCC(=O)N2CCN(c3ccccc3)CC2)c(C)c1S(=O)(=O)N1CCCC1	16.1%
CCC(Sc1nc2ccccc2c2nc(-c3ccccc3)nn12)C(=O)Nc1cccc(OC)c1 (stereo unspecified)	3.5%
O=C(CCSCc1cnn(-c2ccccc2)c1-n1cccc1)NCc1ccc(Cl)cc1	-9.3%
CCc1ccc(NC(=O)N(Cc2ccc(C)cc2)Cc2cccn2-c2nnc(N3CCCC3=O)s2)cc1	-9.0%
O=C(Cn1ncc2c1-c1ccccc1OC2)N1CCN(c2ccccc2F)CC1	-0.3%
COc1ccc(N2CC(NC(=O)COc3ccc4ccccc4c3)CC2=O)cc1 (stereo unspecified)	-4.9%
Cc1ccc(OCCCCn2c(-c3ccc(Cl)cc3)nc3ccccc3c2=O)cc1	-3.1%
COc1ccc(C2C=C(c3ccc(C)cc3)Nc3c(C(=O)Nc4ccccc4)cnn32)cc1 (stereo unspecified)	-0.1%
COc1ccc2c(c1)c(CC(=O)Nc1cc(C)c(OC)c(C)c1)c(C)n2C(=O)c1ccc(Cl)cc1	4.1%
COc1ccc(-c2noc(CCC(=O)N(C)c3cc(Cl)ccc3OC)n2)cc1	15.3%
CCC(=O)Nc1cc(-c2nc3cc(C)cc(C)c3o2)ccc1C	-32.3%
Cc1ccc(NC(=O)/C=C/c2ccc(Cl)cc2)c(Br)c1	-2.5%
COc1ccc(C(=O)Nc2onc3c2CCCC3)cc1	?
Cc1ccc(S(=O)(=O)c2nc(S(C)(=O)=O)sc2NCc2ccccc2)cc1	1.4%
COc1ccc2[nH]c(=O)c(CN(C(=O)c3cccc(Cl)c3)c3cccc(C)c3)cc2c1	-5.9%
COc1ccc(-c2noc(-c3cccnc3N3CCN(c4ccc(OC)cc4)CC3)n2)cc1	-2.3%
CCOc1ccc(NC(=O)Cn2c(=O)cc(C)c3c(C)nn(-c4ccc(CC)cc4)c32)cc1	0.7%
CCOC(=O)c1cc(NC(=O)c2ccc(C)cc2)c(=O)n2c1oc1ccccc12	-5.2%
O=C(NCCCN1CCCCC1)c1ccc2c(c1)sc1nc(-c3ccc(F)cc3)cn12	2.3%
Cc1c(-c2nnc(SCC(=O)Nc3ccc(Cl)cc3)o2)nnn1-c1ccc(F)cc1	-22.6%
O=c1oc2ccccc2cc1-c1cn2cc(Cc3cc(Cl)ccc3Cl)sc2n1	-2.7%
COc1ccc([C@]23Cc4cc(OC)c(OC)cc4C(O2)C2=C(CC(C)(C)CC2=O)O3)cc1	-4.9%[7.66 µM]
CC(C)c1nc2ccc(C(=O)NC(C)c3ccccc3)cc2o1 (stereo unspecified)	-15.4%
Cc1ccc(CNC(=O)CCCCn2c(=O)c3ccccc3n(Cc3ccc(C)cc3)c2=O)cc1	3.5%
CCOc1ccc(C(C)C)cc1S(=O)(=O)Nc1cccc(-c2ccc(N3CCOCC3)nn2)c1	-6.1%
Fc1ccc(-c2nc(Nc3cccc(C(F)(F)F)c3)nc3c2COc2ccccc2-3)cc1	?
COc1ccccc1N1CCN(C(=O)c2ccc3c(c2)N(Cc2cc(C)ccc2C)C(=O)c2ccccc2S3(=O)=O)CC1	3.7%
Cc1ccc(C)c(N2CCN(C(=O)C3CCN(c4nc5ccc(C)cc5[nH]4)CC3)CC2)c1	15.2%
Brc1ccc(-c2cn3cc(Cc4ccccc4)sc3n2)cc1	-64.4%
COc1ccc(Cl)cc1NC(=O)CN1C(=O)COc2ccc(S(=O)(=O)NC3CCCC3)cc21	-2.0%
COc1ccc(NC(=O)CCS(=O)(=O)c2ccc3c(c2)n(C)c(=O)c(=O)n3C)cc1Cl	-2.3%
FC(F)(F)c1cccc(Nc2nc3nonc3nc2Nc2ccc(Cl)cc2)c1	?
CCN(CC)S(=O)(=O)c1ccc2c(c1)N(CC(=O)N1CCN(c3cc(Cl)ccc3C)CC1)C(=O)CO2	-1.1%
FC(F)(F)c1cc(-c2ccccc2)nc2cc(-c3ccc(Br)cc3)nn12	-3.4%
COc1ccccc1NC(=O)C(Cc1ccccc1)NS(=O)(=O)c1ccc2c(c1)CCN2C(C)=O (stereo unspecified)	2.5%
CC(=O)Nc1ccc(Nc2ncnc3c2cnn3C)cc1	-26.2%
CCc1ccc(NC(=O)c2ccc(CNS(=O)(=O)c3ccc4c(c3)C(C)(C)C(=O)N4C)cc2)cc1	?
CC(C)c1ccc(CNc2nc(-c3ccco3)nn2S(=O)(=O)c2ccc3ccccc3c2)cc1	-42.2%
CC(=O)c1cccc(NC(=O)c2cccn2-c2nnc(N3CCCCC3)s2)c1	-8.5%
N#C/C(=C\c1ccc(-c2ccc(Br)cc2)o1)C(=O)Nc1ccccc1O	5.0%
CCOC(=O)Cn1c(=O)n(-c2ccccc2OC)c2nc(-c3cccc(F)c3)nc(C(N)=O)c21	6.0%
CCn1ccc2cc(S(=O)(=O)N3CCC(C(=O)NCCc4ccccc4Cl)CC3)ccc21	-1.0%
Cc1ccc2c(c1)C(=O)OC(C(=O)Nc1ncc(Cc3ccccc3Cl)s1)C2 (stereo unspecified)	1.0%
Clc1ccc(-n2ncc3c(NC4CCCC4)ncnc32)cc1	11.1%
CCOc1ccc(NC(=O)c2ccc(NC(=O)CCS(=O)(=O)c3cccs3)cc2)cc1	-21.1%
Cc1ccc(NC(=O)c2ccc3snnc3c2)cc1Cl	-46.2%
Cc1ccc2oc3c(c(=O)c2c1)C1(C(=O)N(C)c2ccccc21)N(CCCO)C3=O (stereo unspecified)	-9.1%
CCN1CCN(c2c(S(=O)(=O)c3ccccc3)cnc3ccc(Cl)cc23)CC1	18.0%
CCCc1cc(=O)oc2cc(C)c3c(-c4cccc(OC)c4)coc3c12	-4.5%
Cc1ccccc1NC(=O)CSc1nc2ccc(NC(=O)c3ccco3)cc2s1	13.9%
Cc1nn(Cc2ccc(Cl)c(Cl)c2)c(C)c1NC(=O)c1noc2c1CCc1ccccc1-2	21.5%

Quoted at random: three compounds from above
SMILES	miR-21 reporter
CC(C)c1ccc(NC(=O)CC2NCCNC2=O)cc1 (stereo unspecified)	-19.4%
CCOc1ccc(C(C)C)cc1S(=O)(=O)Nc1cccc(-c2ccc(N3CCOCC3)nn2)c1	-6.1%
N#C/C(=C\c1ccc(-c2ccc(Br)cc2)o1)C(=O)Nc1ccccc1O	5.0%

Later entries:
SMILES	miR-21 reporter
Cc1ccc(CSCC2Nc3ccc(C(=O)N4CCN(c5cccc(C)c5)C(C)C4)cc3NC2=O)cc1 (stereo unspecified)	5.8%
COC(=O)C(Cc1c[nH]c2ccccc12)NC(=O)COc1cccc(C)c1 (stereo unspecified)	-5.9%
CCOC(=O)c1c(NC(=O)/C=C/c2ccc(OC)cc2)sc2c1CCC(C)C2 (stereo unspecified)	0.2%
CN(C)c1ccc(CNC(=O)Cc2ccc(NC(=O)N3CCCCc4ccccc43)cc2)cc1	-3.5%
O=[N+]([O-])c1ccc(N2N=C(c3ccccc3)CC2c2ccccc2O)cc1 (stereo unspecified)	?
O=C(c1ccc(F)cc1F)N1CCC(c2nc(-c3ccc(S(=O)(=O)N4CCCC4)cc3)no2)CC1	9.3%
CC1=C(C(=O)Nc2cccnc2)C(c2ccc(C)cc2)n2nc(SCc3ccccc3F)nc2N1 (stereo unspecified)	0.2%
CCN(CC)c1ccc(NC(=O)c2cc(CN3CCCC3)on2)c(C)c1	1.3%
CC(=O)c1ccc(N2CCN(C(=O)c3cc4c(s3)-c3ccccc3OC4)CC2)cc1	-0.1%
Cc1cc2nn(-c3ccc(F)cc3)nc2cc1NC(=O)c1cccc2c(Cl)cccc12	-2.1%
Cc1ccc2nc(-c3ccccc3F)c(Nc3ccc(Cl)cc3)n2c1	8.9%
COC(=O)c1c(NC(=O)c2c(OC)cccc2OC)sc2c1CCCC2	1.9%
Cc1sc2ncn(CC(=O)N3CCN(c4ccccc4F)CC3)c(=O)c2c1S(=O)(=O)N1CCC(C)CC1	-1.9%
